BJeLR lethal = BJeLR cell viability loss | hit rate 0.17% among 300,000 | BJeLR (HRASV12) viability, CellTiter-Glo ATP luminescence, 48 h; reference of the scale not given here | inhibition, % (concentration not given with the values);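 active means replicate mean above 50%; inconclusive means above 50% but judged a plate artefact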;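 further: 50 nL library stock added to about 25 µL; numbers are from one replicate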
Bead autofluor = flagged as autofluorescent in microsphere protease counterscreen; compound autofluorescence counterscreen, microsphere flow cytometry; active compounds read high; fluorescence intensity (test concentration not listed); hit rate 3.1% among 360,000; AID 624483;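 active means at least 3 SD above the mean of all compounds, about 16000 in these data; inconclusive means too few beads counted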;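 further: 100 nL of 1 mM stock went into each well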
PrP 5UTR inh = suppresses PrP 5' UTR mRNA reporter expression | cell-based PrP 5' UTR mRNA reporter, plate reader | inhibition, % (test concentration not listed) | hit rate 0.35% among 340,000;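 active means every replicate at 50% or more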;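 further: 0 = median of the neutral control wells; tested in H4 reporter cells; numbers are from one replicate; inactives centre near -14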
Mtb hypoxia rep = inhibitors of hypoxia-regulated fluorescent reporter in Mycobacterium tuberculosis. AID 1159583. hit rate 0.1% among 300,000. fluorescence inhibition, % (test concentration not listed). M. tuberculosis hypoxia-regulated fluorescent reporter, fluorescence;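 active means 35 to 45% if threefold the growth effect, above 45% if 1.5-fold the growth effect; inactive means the rest, general growth blockers included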;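 further: wells of about 50 µL received 100 nL stock; 0% = vehicle wells and 100% = reference inhibitor wells; whole bacteria with a GFP reporter of the hypoxia response; strong numbers were not always called active; many hits fall short of the cut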
Sa ugtP lethal = compounds lethal to S. aureus RN4220 ugtP deletion mutant. OD600 growth, 16 h; some inactives read as strong as hits. growth inhibition, % (test concentration not listed). hit rate 0.54% among 330,000;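 active means z-score under -3 and OD600 up to 0.15 on both plates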;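 further: plate controls were untreated wells for no effect and antibiotic for full effect; wells of about 80 µL received 100 nL stock; the first replicate is given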
Sa RN4220 lethal = S. aureus RN4220 growth inhibition; OD600, 16 h; inhibition, % (concentration not given with the values); hit rate 0.33% among 330,000;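 active means z-score of -3 or lower and OD600 up to 0.18 on both plates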;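 further: plate controls were untreated cells for no effect and reference antibiotic for full effect; stock transfer was 100 nL into about 80 µL; one replicate is shown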
Mtb hypoxia rep growth = further read-out of Mtb hypoxia rep, marked with its call; growth inhibition, %; measured here: M. tuberculosis growth (absorbance);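 0% = vehicle and 100% = reference antibiotic; read after six days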
The depositor's hits bear a star; ? = inconclusive; . = no result given; & = joins results of further samples.

SMILES	BJeLR lethal	Bead autofluor	PrP 5UTR inh	Mtb hypoxia rep	Mtb hypoxia rep growth	Sa ugtP lethal	Sa RN4220 lethal
CCc1nnc(NC(=O)CSc2nnc(CNc3ccc(Cl)cc3)o2)s1	1	?	-14	1	-5	-3	1.4
COC(=O)N/N=C\c1c(C)[nH]n(-c2ccccc2)c1=O	1	5026	-19	.	.	.	.
O=C(O)c1ccc(N2C(=O)CC(SC(=NCc3ccc4c(c3)OCO4)Nc3ccccc3)C2=O)cc1 (stereo unspecified)	-1	4069	-32	10	-4	10	4.9
C=CCn1c(SC(C)C(=O)NC2CC2)nnc1-c1ccoc1C (stereo unspecified)	9	5738	1	4	10	5	2.4
CC(C)COC(=O)C(C)Nc1n[nH]c(=S)[nH]c1=O (stereo unspecified)	1	3219	16	3	0	-3	3.0
CCOC(=O)C1(CCc2ccccc2)CCN(C(=O)CN2CCOC2=O)CC1	-1	4702	-15	4	2	16	2.7
COc1ccc(C=NNC(=O)CN2CCCC2)cc1	.	.	.	2	-9	4	1.8
CC(C)NC(=O)/C(=N\O)c1ccccc1	1	15957	-20	.	.	.	.
COc1ccc2c(c1)CCCC2=NNc1nc(C(=O)NN)cs1	.	.	.	0	1	-11	7.5
CC1CCCN(C2(O)C(=O)Nc3c(C(F)(F)F)cccc32)C1 (stereo unspecified)	-3	4308	-13	12	16	-2	0.3
O=S(=O)(c1ccccc1F)N1CCCc2ccccc21	-6	3498	-13	3	14	14	10
O=C(O)COCC(=O)Nc1ccc2c(c1)CCC2	2	11405	-39	10	6	-2	6.2
Cc1ccc(NC(=O)c2c(C)noc2C)cc1S(=O)(=O)N1CCOCC1	.	3943	-11	10	14	-2	2.8
O=C(Cn1c(=S)[nH]c2ccccc2c1=O)N1CCN(c2ccccc2)CC1	-6	3268	-38	2	0	1	1.9
Cc1ccc(C)c(NC(=O)CN(C)C(=O)c2ccccc2OCc2c(C)noc2C)c1	.	3887	-17	4	0	-2	0.4
Cc1ccc(S(=O)(=O)N2CCCCC2)cc1NC(=O)CCNC(=O)c1ccccc1	.	9109	-7	7	8	3	2.4
O=C1NCCCC1C(=O)N/N=C/c1cc([N+](=O)[O-])ccc1O (stereo unspecified)	0	4539	-16	.	.	.	.
COc1ccc(/C=N/N2C(C)CCCC2C)cc1O (stereo unspecified)	0	3009	-8	.	.	.	.
C/C=C\C=C/C(=O)Nc1cccc(C2=NOC3(C2)C[C@@H](C(N)=O)N(C(=O)c2ccc(Cl)cc2)C3)c1 (stereo partly specified)	0	3755	-9	.	.	.	.
C=CCOC(=O)N1CCN(c2cccc(C(F)(F)F)c2)CC1	-4	6942	-29	-64	-4	7	6.7
O=C(CCCc1cccs1)Nc1nccs1	-5	3381	-6	5	3	1	0.0
O=C(/C=C/c1ccccc1)N/C(=C/c1ccccc1)C(=O)Nc1ccc(C(=O)O)cc1	-9	10144	-19	-6	0	2	-1.9
Cc1ccc(NC(=O)CNc2cc(S(=O)(=O)N3CCOCC3)ccc2NCC2CCCO2)cc1F (stereo unspecified)	2	?	-2	-2	-3	-9	6.1
CCOc1cc(N2CCOCC2)c(OCC)cc1NC(=O)CCS(=O)(=O)c1ccc(Cl)cc1	-1	7514	-22	3	0	1	3.2
CCn1c(=O)cc(SCC(=O)N2CCN(c3ccccc3F)CC2)c2ccccc21	-9	9419	-19	10	5	-18	-2.2
C=C(C)C1CC=C(CN2CCC(C(=O)OCC)CC2)CC1 (stereo unspecified)	-3	15257	-23	-1	-2	6	1.3
COc1ccccc1-c1nnc(SC/C(O)=C(\C#N)c2nc3ccccc3[nH]2)n1C1CCCCC1	-13	2665	-37	.	.	.	.
COc1ccc(-c2csc(NC(=O)c3cc(=O)c4ccccc4o3)n2)cc1OC	3	4429	-12	17	4	-13	11
Cn1c(-c2ccc(F)cc2)cnc1NCc1ccccc1	-4	17208*	-6	-6	3	11	7.6
Cn1c(SCC(=O)N2CCCCCC2)nnc1-c1ccco1	7	4639	-6	-4	-5	6	0.0

An excerpt from above in order of length of the SMILES, ascending.
SMILES	BJeLR lethal	Bead autofluor	PrP 5UTR inh	Mtb hypoxia rep	Mtb hypoxia rep growth	Sa ugtP lethal	Sa RN4220 lethal
O=C(CCCc1cccs1)Nc1nccs1	-5	3381	-6	5	3	1	0.0
COc1ccc(/C=N/N2C(C)CCCC2C)cc1O (stereo unspecified)	0	3009	-8	.	.	.	.
Cn1c(-c2ccc(F)cc2)cnc1NCc1ccccc1	-4	17208*	-6	-6	3	11	7.6
C=C(C)C1CC=C(CN2CCC(C(=O)OCC)CC2)CC1 (stereo unspecified)	-3	15257	-23	-1	-2	6	1.3
C=CCOC(=O)N1CCN(c2cccc(C(F)(F)F)c2)CC1	-4	6942	-29	-64	-4	7	6.7
O=C1NCCCC1C(=O)N/N=C/c1cc([N+](=O)[O-])ccc1O (stereo unspecified)	0	4539	-16	.	.	.	.
Cc1ccc(NC(=O)c2c(C)noc2C)cc1S(=O)(=O)N1CCOCC1	.	3943	-11	10	14	-2	2.8
O=C(Cn1c(=S)[nH]c2ccccc2c1=O)N1CCN(c2ccccc2)CC1	-6	3268	-38	2	0	1	1.9
CCn1c(=O)cc(SCC(=O)N2CCN(c3ccccc3F)CC2)c2ccccc21	-9	9419	-19	10	5	-18	-2.2
Cc1ccc(S(=O)(=O)N2CCCCC2)cc1NC(=O)CCNC(=O)c1ccccc1	.	9109	-7	7	8	3	2.4
Cc1ccc(C)c(NC(=O)CN(C)C(=O)c2ccccc2OCc2c(C)noc2C)c1	.	3887	-17	4	0	-2	0.4
CCOc1cc(N2CCOCC2)c(OCC)cc1NC(=O)CCS(=O)(=O)c1ccc(Cl)cc1	-1	7514	-22	3	0	1	3.2
O=C(/C=C/c1ccccc1)N/C(=C/c1ccccc1)C(=O)Nc1ccc(C(=O)O)cc1	-9	10144	-19	-6	0	2	-1.9
COc1ccccc1-c1nnc(SC/C(O)=C(\C#N)c2nc3ccccc3[nH]2)n1C1CCCCC1	-13	2665	-37	.	.	.	.
C/C=C\C=C/C(=O)Nc1cccc(C2=NOC3(C2)C[C@@H](C(N)=O)N(C(=O)c2ccc(Cl)cc2)C3)c1 (stereo partly specified)	0	3755	-9	.	.	.	.

(continued)
SMILES	BJeLR lethal	Bead autofluor	PrP 5UTR inh	Mtb hypoxia rep	Mtb hypoxia rep growth	Sa ugtP lethal	Sa RN4220 lethal
COc1cc(C2C(C#N)=C(N)OC3=C2C(=O)CCC3)c([N+](=O)[O-])cc1OC (stereo unspecified)	-5	4261	-13	3	1	1	6.8
O=C(CN1C(=O)/C(=C/c2ccc(F)cc2)SC1=S)NC1CCS(=O)(=O)C1 (stereo unspecified)	3	4289	-8	4	-2	8	7.3
COc1ccc(N=C2NC(=O)C(CO)(CO)S2)cc1	3	4044	0	-7	-2	2	0.9
CCCCN1CCc2c([nH]c3ccccc23)C1=O	-5	5268	-69	.	.	-3	3.7
Cc1c(Cl)cccc1NC(=O)CNC(=O)C1CCN(C(=O)Nc2ccccc2)CC1	.	?	.	6	12	-2	1.7
COCCn1c(SCC(=O)Nc2cccc(S(N)(=O)=O)c2)nc2ccccc21	-2	3312	-3	9	5	-4	2.4
COc1ccc(-c2[nH]c(-c3ccc(C)cc3)nc2SCC(=O)Nc2nccs2)cc1	-12	2363	-12	-5	0	-18	-8.6
COc1ccc(-n2c(Cc3cccn3C)nnc2SCC(=O)Nc2ccc(C)c(Cl)c2)cc1	-9	6256	-28	.	.	-17	1.7
COc1cc(OC)cc(C(=O)N[C@H](C(=O)Nc2cccc(S(=O)(=O)N3CCCC3)c2)C(C)C)c1	1	4445	-21	9	6	6	-1.9
Nc1cccc(-c2nc3ccc(N)cc3s2)c1	-2	3135	-38	9	1	-17	-7.8
CCOC(=O)C1CCCN(C(=O)c2cc(Nc3ccc(OC)cc3OC)nc3ccccc23)C1 (stereo unspecified)	-9	9189	-18	9	11	-3	2.1
CN(C)C(=O)c1ccc(Oc2ccc(C(=O)N(C)C)cc2)cc1	6	8565	.	3	4	0	2.5
COc1cccc(-c2csc(N3CCN(CC(=O)NNC(=O)c4ccc(Cl)cc4)CC3)n2)c1	4	9123	3	2	2	1	6.9
O=C(CN1C(=O)COc2ccccc21)Nc1ccc(N2CCOCC2)cc1	4	5704	-8	-1	-8	13	-5.6
Cc1ccsc1/C=N/NC(=O)c1ccco1	-2	2433	-30	.	.	.	.
CC(C)NC(=O)COc1ccc(S(=O)(=O)N2CCOCC2)cc1	5	3082	-16	.	.	5	0.6
CCOc1ccccc1-c1cc(C(=O)NN=C(C)c2cccnc2)c2ccccc2n1	.	.	.	-10	-4	1	1.9
O=C(Nc1cc(Sc2ccccn2)cc([N+](=O)[O-])c1)c1cccc(F)c1	-1	2196	0	-2	0	-27	-2.0
Fc1ccc(C2=Nn3c(Cc4ccccc4)nnc3SC2)cc1	-14	8188	-6	-25	-15	-5	16
Cc1ccc2cc(CN(Cc3nnnn3C3CCCC3)C3CCCCC3)c(=O)[nH]c2c1C	0	5570	-16	1	6	3	3.3
COc1ccc(C(C)=O)cc1COC(=O)c1ccc(N)c([N+](=O)[O-])c1	4	4054	-4	15	5	-4	5.5
COC(=O)CC1C(=O)NC2CCCCC2N1C(=O)c1ccccc1 (stereo unspecified)	6	4051	-19	.	.	6	1.5
CSc1nc(-c2ccccc2)c(-c2ccccc2)[nH]1	3	8910	-21	13	8	1	8.7
CC1CCc2c(sc3ncn(N)c(=N)c23)C1 (stereo unspecified)	1	4683	-29	11	4	7	0.1
O=C1NC2(CCCCCC2)C(=O)N1Cc1ccccc1Br	-5	5306	-16	9	5	-2	6.0
Cc1ccc2cccc(Oc3cnccn3)c2n1	7	3671	-9	17	12	4	3.9
CNC(=O)CSc1nnc(-c2ccco2)n1-c1cccc(C)c1C	0	4215	-19	2	0	4	-1.9
Cc1ccccc1OC(C)c1nc(-c2ccccc2)no1 (stereo unspecified)	6	3387	-22	-8	-8	29	-0.6
Cc1c(NCc2ccccc2O)c(=O)n(-c2ccccc2)n1C	4	4374	-8	14	17	0	1.6
Cc1ccc(S(=O)(=O)N(C)C)cc1NC(=O)CSc1nnc(C2CC2)n1C1CC1	.	.	.	10	2	1	-0.7
CCNc1ccc(S(=O)(=O)C(F)(F)F)cc1NC(=O)C12CCC(CC1)C2	-8	9904	-36	6	8	-1	4.6
O=c1cc(-c2ccccc2)n(S(=O)(=O)c2ccccc2)o1	-1	3472	-8	.	.	17	2.3
CC(C)COc1ccc(C(=S)N2CCCC2)cc1	-2	3852	-22	6	4	8	6.1
O=C(CCCOc1ccc(Cl)cc1Cl)NCC1CCCO1 (stereo unspecified)	8	2868	-23	-11	2	0	17
C=CCNC(=O)/C(C#N)=C/c1c(N2CCN(c3ccccc3)CC2)nc2c(C)cccn2c1=O	3	4066	-13	12	5	-1	-1.6
COc1cc(C(=O)NC(=S)Nc2ccc(NC(=O)c3ccco3)cc2)cc(OC)c1OC	3	2042	4	9	3	-6	6.2
Cc1ccc(S(=O)(=O)N2CCC(=O)N(CCOCc3cccc(C(F)(F)F)c3)CC2)cc1	6	3489	-29	4	4	7	0.4
Cn1nc([N+](=O)[O-])nc1Oc1ccc(C(C)(C)C)cc1	-7	2130	-15	.	.	10	3.2
CCOC(=O)c1[nH]c2ccc(OC)cc2c1NC(=O)CN1CCN(c2ccccn2)CC1	0	.	.	-3	8	-1	9.8
CC(C)(C)c1ccc(-c2nc(NCc3cccnc3)c3ccccc3n2)cc1	-4	2510	-40	-9	8	6	-9.1
NC1=NCC(Cc2ccc(O)cc2)N1CCc1cc(C(F)(F)F)cc(C(F)(F)F)c1 (stereo unspecified)	.	.	.	4&8	11&13	-2&53	0.3&-3.5
OCCC1CN(Cc2ccncc2)CCN1C1CCCC1 (stereo unspecified)	4	2681	-12	5	4	4	2.7

Screening data from PubChem.
